Assay outcomes (PubChem)
Vaccinia mCherry = vaccinia inhibition (mCherry reporter). Vaccinia virus mCherry reporter infection, fluorescence; about a quarter of the inactives have no number. AID 720579. 0.63% of 310,000 active. Potency, µM (top dose mostly 36.5 µM), without a hit: top-dose activity change, negative = inhibition, hits mostly inhibitors; active = well fitted inhibition curve with a large enough effect; inconclusive = small, poorly fitted or top-dose-only effect; inactive = no such curve, though single readings can be large or run the other way; tested in A549 cells; further: nearly all actives have a fitted effect of over 35% in size; inactives centre near -10
Vaccinia Venus = inhibitors of vaccinia virus (Venus reporter). Vaccinia virus Venus reporter expression, fluorescence. Potency, µM (series often up to 36.5 µM), for the others: at the top dose activity change, negative = inhibition, usual class: inhibitors. 0.46% of 330,000 active. AID 720580; active means well fitted inhibition curve with a large enough effect; inconclusive means small, poorly fitted or top-dose-only effect; inactive means no such curve, though single readings can be large or run the other way; tested in A549 cells; further: nearly all actives have a fitted effect of over 30% in size; inactives centre near -10
Active calls of the source: *; i = inactive; ? = inconclusive; / = no result given; [ ] = dose if it differs, or a comment. On the % scale 0 is the no-effect control and ±100 the full control effect; potency means the concentration at half of the fitted maximal effect. Not a hit list; any-hit rate near 0.86%.

SMILES | Vaccinia mCherry | Vaccinia Venus
CC(OC(=O)c1ccc(Br)c(S(=O)(=O)N2CCOCC2)c1)C(=O)NC1CCCCC1C (configuration not stated) | -20.7% | -12.5%
COc1ccc(Cl)cc1NC(=O)CN(C)CC(=O)Nc1ccc(C)cc1Br | -24.1% | -20.9%
Cc1ccsc1C(=O)NCC(c1cccs1)N1CCOCC1 (configuration not stated) | ? | -28.9%
Cc1noc(C)c1S(=O)(=O)Nc1ccc2c(c1)C(=O)N([C@H](C)CO)C[C@H](C)[C@@H](CN(C)C(=O)NC(C)C)O2 | i | -11.6%
O=C(CC(C(=O)O)c1ccc(Cl)cc1)c1ccc(Br)cc1 (configuration not stated) | -12.9% | -8.0%
C#CCOCCOCCOCCNc1nc(N2CCN(C(=O)Cn3cc(CCCCN)nn3)CC2)nc(N2CCN(C(=O)[C@H](CCCCN)n3cc(CCCC)nn3)CC2)n1 | i | -8.7%
CCOC(=O)C1=CCN(S(=O)(=O)c2ccccc2F)C1c1cccc(F)c1 (configuration not stated) | 7.3% | -3.3%
CCCCCCn1c(=O)n2n(c1=O)C[C@]1(OC(=O)NCc3ccccc3)CN(S(=O)(=O)c3ccc(C)cc3)C[C@]1(O)C2 | i | ?
COc1cc(CCC(=O)NCC2CCCO2)cc(OC)c1OC (configuration not stated) | -14.2% | -5.2%
O=C(NCc1ccc2c(c1)OCO2)c1ccc(S(=O)(=O)N2CCOCC2)cc1 | i | 2.8%
COc1ccc(C)cc1S(=O)(=O)NC(C)C(=O)NC1CC1 (configuration not stated) | i | -15.3%
CCc1nnc(NC(=O)CCC(=O)N2CCN(C3c4ccccc4-c4ccccc43)CC2)s1 | i | -16.3%
Cn1c(C2=C(O)CN(c3ccccc3)C2=N)nc2ccccc21 | -6.5% | -3.7%
CCn1cc(C(=O)NCc2ccc(C)cc2)c(=O)c2cc(S(=O)(=O)N3CCC(C)CC3)ccc21 | -8.8% | -2.0%
CCC(Cc1ccccc1)NC(=O)c1csc2c1CCCCC2 (configuration not stated) | -11.8% | -6.2%

Another view of 5 compounds above:
Structure,Vaccinia mCherry,Vaccinia Venus
CC(OC(=O)c1ccc(Br)c(S(=O)(=O)N2CCOCC2)c1)C(=O)NC1CCCCC1C (configuration not stated),-20.7%,-12.5%
CCn1cc(C(=O)NCc2ccc(C)cc2)c(=O)c2cc(S(=O)(=O)N3CCC(C)CC3)ccc21,-8.8%,-2.0%
CCOC(=O)C1=CCN(S(=O)(=O)c2ccccc2F)C1c1cccc(F)c1 (configuration not stated),7.3%,-3.3%
CCc1nnc(NC(=O)CCC(=O)N2CCN(C3c4ccccc4-c4ccccc43)CC2)s1,i,-16.3%
COc1ccc(C)cc1S(=O)(=O)NC(C)C(=O)NC1CC1 (configuration not stated),i,-15.3%

Continued:
SMILES | Vaccinia mCherry | Vaccinia Venus
O=[N+]([O-])/C(Cl)=C(/NCCO)C(Cl)=C(Cl)Cl | i | -28.1%
Cc1cccc(C)c1OCC(=O)N(Cc1ccco1)Cc1ccco1 | 6.3% | -2.1%
COCCN(C(=O)COC(=O)CCCOc1ccc(OC)cc1)c1c(N)n(Cc2ccccc2)c(=O)[nH]c1=O | -26.2% | -9.3%
COc1cccc(Cc2n[nH]c(=S)n2Cc2ccco2)c1 | -10.0% | -11.5%
N#CCSc1nc2sccc2c(=O)n1-c1ccccc1 | -9.6% | -11.2%
Cc1cc(NC(=O)COC(=O)c2oc3c(Cl)cccc3c2C)no1 | -12.2% | -4.5%
CCC(c1nnnn1C(C)(C)C)N1CCN(C/C=C/c2ccccc2)CC1 (configuration not stated) | 25.3% | -6.2%
COC(=O)c1scc(-c2ccc(C)cc2)c1S(=O)(=O)Nc1ccc(OC(F)(F)F)cc1 | -14.8% | -3.5%
Cc1ccc2c(CC(=O)Nc3ccc(S(=O)(=O)N4CCCCC4C)cc3)coc2c1C (configuration not stated) | -22.7% | -20.9%
CCCCCCN(CCCCCC)c1ccc(/C=C/c2ccnc3ccccc23)cc1 | 37.8%[activator] | 37.2%[activator]
Cc1ccc(NC(=O)Nc2nnc(N3CCCC3)s2)c(C)c1 | -2.8% | -8.3%
COc1ccc(NS(=O)(=O)c2ccc3oc(SC(C)C(N)=O)nc3c2)cc1 (configuration not stated) | ? | ?
NC(=O)C1CCN(C(=O)COc2ccc3c4c(c(=O)oc3c2)CCC4)CC1 | -1.6% | -4.5%
COc1ccccc1C(=O)COC(=O)C1CCN(S(=O)(=O)c2ccccc2)CC1 | -11.0% | -6.6%
COc1cc(/C=C/C(=O)OCC(=O)N2CCC(C)CC2)ccc1O | -4.0% | -7.7%

A few values from above.
NC(=O)C1CCN(C(=O)COc2ccc3c4c(c(=O)oc3c2)CCC4)CC1 | Vaccinia Venus = -4.5%
CCC(c1nnnn1C(C)(C)C)N1CCN(C/C=C/c2ccccc2)CC1 (configuration not stated) | Vaccinia mCherry = 25.3%

The results go on:
SMILES | Vaccinia mCherry | Vaccinia Venus
COCCNC(=O)C1CCCN(C(=O)COc2ccc(Cl)cc2Cl)CC1 (configuration not stated) | 45.3%[activator] | 8.4%
O=c1[nH]c(=O)n(C(c2ccccc2)(c2ccccc2)c2ccccc2)cc1N(CCO)CCO | -8.7% | -17.9%
Cc1cc(N)ccc1NC(=O)CN1CCOCC1 | -0.1% | -7.2%
CCn1cc(Cl)c(C(=O)Nc2ccc3c(c2)OCCO3)n1 | -0.8% | -10.0%
O=C(NCc1ccc(Cl)cc1)c1ccccc1Oc1ccccc1 | -0.3% | -16.7%
COC(=O)[C@]1(C)CCC[C@@]2(C)C3CC[C@@]4(C)C[C@]3(CCC21)CC(=O)N4C (some centres not stated) | -4.5% | -26.8%
CC(C)CC(=O)n1nc(-c2cccnc2)nc1NCc1ccc(F)cc1 | -16.4% | -7.4%
O=S1(=O)CC(N2CCN(CC3CC3)CC2)CN1C1CCCC1 (configuration not stated) | 7.9% | -0.8%
C=CCNc1nc(C2(C)CC3(CC(C)(C)OC3=O)C(=O)O2)cs1 (configuration not stated) | / | -21.4%
CC(=O)c1ccc[n+](CC(=O)NC(C)c2ccccc2)c1 (configuration not stated) | -1.6% | -7.2%
COC(=O)C1=C(NC(=O)c2ccc(Br)cc2)CCS1 | i | -0.3%
Cc1ccc(S(=O)(=O)c2nc(S(C)(=O)=O)sc2NCC2CCCO2)cc1 (configuration not stated) | i | -2.8%
COCCN1CCN(C(=O)c2cnn(-c3nccc(-c4cc5ccccc5o4)n3)c2C2CC2)CC1 | -26.2% | -8.8%
CCc1cccc(C)c1NC(=O)Nc1ccc2c(c1)OCO2 | 19.7% | 22.9%
O=C(C(=O)N1CCOCC1)c1cn(Cc2c(F)cccc2Cl)c2ccccc12 | -11.8% | -2.2%
O=C(CSc1nc(C2CC2)nc2ccccc12)Nc1ccccc1Cl | i | -6.4%
CCOc1ncccc1C(=O)OCC(=O)Nc1ccc(-c2nc3ccc(C)cc3s2)cc1 | ? | ?
CCOc1ccc(S(=O)(=O)N2CCC(C(=O)NCC3CCCO3)CC2)cc1Cl (configuration not stated) | -1.1% | -10.1%
Cc1ccc(NC(=O)/C(C#N)=C/c2ccc(C(C)C)cc2)cc1C | -8.5% | 4.3%
Cc1ccc(C(=O)NCCNC(=O)CN2CCOCC2)cc1 | i | 2.1%
Cc1nc2ccccn2c(=O)c1NC(=O)c1ccc(F)c(F)c1 | -8.6% | -4.0%
Cc1c(Cl)cccc1NC(=S)N=Nc1c(O)n(CN2CCOCC2)c2ccccc12 | -22.7% | -12.2%
CC(C)COC(=O)C(N)C(C(=O)OCC(C)C)c1ccccc1 (configuration not stated) | / | -19.5%
Cc1cc(C)n(-c2ccc(C(=O)N3CCc4c(cnc(C)c4CNC(=O)c4ccccc4F)C3)cc2)n1 | -14.1% | -6.3%
O=[N+]([O-])c1cc([N+](=O)[O-])c(Oc2c(F)cc(F)cc2F)cc1NN1CCCCC1 | ? | -12.5%
O=C(COC(=O)C1CC2C=CC1C2)Nc1cccc(S(=O)(=O)N2CCOCC2)c1 (configuration not stated) | -5.4% | -10.3%
O=C(COc1ccc(C(=S)N2CCCC2)cc1)Nc1ccccc1C(F)(F)F | i | -21.3%
Cn1ncc2c(Nc3ccc(O)cc3)nc(Cl)nc21 | ? | -4.9%
COc1cccc(/C=N/NC(=O)c2cnccn2)c1 | -14.4% | -25.0%
COc1cccc(-c2nn(C)c3sc(C(=O)NCc4ccc5c(c4)OCO5)cc23)c1 | ? | ?
CNC(=O)c1sccc1-n1cccc1 | -13.2% | 2.9%
O=C(Nc1ccc(F)cc1)N1CCCCCC1 | -16.4% | -10.4%
O=C(CN(CCc1ccccc1)C(=O)CNS(=O)(=O)c1ccc(F)cc1)NCC1CCCO1 (configuration not stated) | / | -11.7%
CN1CCN(/N=C/c2ccc(C#N)cc2)CC1 | 3.0% | 0.5%
Oc1ccc(Cc2ccc(Cl)cc2)c(O)c1 | ? | -2.9%
Cc1ccc(-n2nc(C)c(C(=O)NCCCN3CCN(c4cccc(Cl)c4)CC3)c2-n2cccc2)cc1 | ? | -26.5%
CCCCN(CCCC)C(=O)/C=C/c1cccc([N+](=O)[O-])c1 | / | -20.6%
CCOc1ccc(Nc2nc3cc(Cl)c(Cl)cc3nc2-n2nc(C)cc2C)cc1 | -6.6% | -6.3%
Clc1ccc2nc(C(Cl)(Cl)Cl)[nH]c2c1 | i | -15.2%
O=C(O)COc1ccc2c(c1)OCCO2 | 1.0% | 3.8%
CS(=O)(=O)N1CCc2cc(S(=O)(=O)Nc3ccc4c(c3)OCCO4)ccc21 | -6.9% | -25.1%
O=C(CSc1ccc2nnc(CCNC(=O)c3ccc(F)cc3)n2n1)NCC1CCCO1 (configuration not stated) | -5.4% | -3.4%
O=C(C(c1ccccc1)c1ccccc1)N1CC[C@@]2(O)CCCC[C@H]2C1 | i | -16.9%
CCN(CCCNC(=O)C1CCN(S(=O)(=O)c2cnc[nH]2)CC1)c1ccccc1 | -5.6% | -5.6%
CCOc1ccc(N(C(=O)c2snc(C(N)=O)c2N)C(C(=O)NCC2CCCO2)c2ccco2)cc1 (configuration not stated) | -8.1% | -3.9%

Complete entries from above. Order of screens: Vaccinia mCherry | Vaccinia Venus
O=C(CN(CCc1ccccc1)C(=O)CNS(=O)(=O)c1ccc(F)cc1)NCC1CCCO1 (configuration not stated) is entered as / | -11.7%
CCCCN(CCCC)C(=O)/C=C/c1cccc([N+](=O)[O-])c1 is entered as / | -20.6%
Cc1ccc(-n2nc(C)c(C(=O)NCCCN3CCN(c4cccc(Cl)c4)CC3)c2-n2cccc2)cc1 is entered as ? | -26.5%

Next structures follow:
SMILES | Vaccinia mCherry | Vaccinia Venus
CCOC(=O)C1CCCCN1C(=O)c1oc2c(Cl)cc(C)cc2c1C (configuration not stated) | -23.0% | -18.9%
Cc1ccc(SC(CC(=O)c2ccc(C)cc2)C(=O)O)cc1 (configuration not stated) | / | -22.7%
CCCC(C)NC(=O)Cn1c(=O)c2c(ncn2CCC(C)C)n(Cc2ccccc2)c1=O (configuration not stated) | -24.3% | -12.9%
COC(=O)CCCC1=CC2=C(c3ccccc3)C(=O)C(C)(OC(=O)C3CCCC3)C(=O)C2=CN1CCCCO (configuration not stated) | -13.5% | 8.2%
CCN(CC)S(=O)(=O)c1cccc(-c2n[nH]c(=S)n2C)c1 | i | -9.6%
O=[N+]([O-])c1cc2c(cc1CNCCc1ccc3c(c1)OCO3)OCO2 | -3.5% | -11.3%
Nc1ccn(CC(=O)NCc2ccccn2)c(=O)n1 | i | -8.4%
CCC(C)NC(=O)C(NS(=O)(=O)c1ccc2c(c1)c(=O)n(C)c(=O)n2C)c1ccccc1 (configuration not stated) | -8.1% | -10.8%
CCN(c1ccccc1)S(=O)(=O)c1cccc(C(=O)NCC(c2cccs2)N(C)C)c1 (configuration not stated) | -19.5% | -17.4%
Cc1cc(C)c(S(=O)(=O)N2CCN(C(=O)C3CC3)CC2)c(C)c1 | -7.2% | -4.2%
Cc1c(NC(=O)CN2C(=O)NC3(CCCC3)C2=O)c(=O)n(-c2ccccc2)n1C | i | -14.5%
COc1ccc(C(=O)NCC(c2ccc3c(c2)OCO3)N2CCN(C)CC2)cc1OC (configuration not stated) | -3.4% | 3.6%
COCCn1nnnc1C(c1ccc(Cl)cc1)N1CCN(C(=O)c2ccco2)CC1 (configuration not stated) | -26.5% | -18.5%
COc1ccc(-n2c(CNC(=O)COc3ccc(Cl)cc3)n[nH]c2=S)cc1 | 9.4% | -4.2%
CCc1ccccc1NC(=O)CN1C(=O)c2cccnc2Sc2ccccc21 | -2.4% | -2.2%

2 consecutive entries already listed, quoted:
SMILES | Vaccinia mCherry | Vaccinia Venus
COc1ccc(-n2c(CNC(=O)COc3ccc(Cl)cc3)n[nH]c2=S)cc1 | 9.4% | -4.2%
CCc1ccccc1NC(=O)CN1C(=O)c2cccnc2Sc2ccccc21 | -2.4% | -2.2%

The results go on:
SMILES | Vaccinia mCherry | Vaccinia Venus
CCCN(CCC)c1nc(N(CCC)CCC)[nH]c(=O)n1 | i | 1.9%
C[N+]1(C)[C@@H]2CC[C@H]1CC(OC(=O)[C@@H](CO)c1ccccc1)C2 (some centres not stated) | i | -2.4%
Cc1ccc(F)c(NC(=O)c2cncn2-c2ccccc2)c1 | i | -14.4%
CCOc1ccc(-c2noc([C@@H]3O[C@H](CO)[C@@H](O)[C@H]3O)n2)cc1 | i | -0.3%
CC(=O)Nc1ccc(CNc2nc(NCC3CC3)nc3ccsc23)cc1 | 4.8% | -9.9%
Cc1[nH]c2ccccc2c1N=Nc1cccc(C(=O)O)c1 | i | -11.8%
Cc1c(Cl)cccc1N1CC(C(=O)Nc2nccs2)CC1=O (configuration not stated) | -14.1% | -13.8%
CCN(CC)c1ccc(CNCCc2ccccc2F)cc1 | ? | -22.2%
CC(c1ccccc1)n1cc(C(=O)NCCN2CCOCC2)nn1 (configuration not stated) | -6.9% | -0.4%
